# Lassa entry inh – qHTS for Inhibitors of binding or entry into cells for Lassa Virus. Lassa virus pseudotype entry inhibition, cell reporter; control for the full effect not named in the record. Potency, µM (doses to about 37.9 µM), without a hit: at the highest dose activity change, negative = inhibition, usual class: inhibitors. hit rate 1.2% among 300,000; active means well fitted inhibition curve with a large enough effect; inconclusive means small, poorly fitted or top-dose-only effect, or effect the other way; inactive means flat fitted curve, though single readings scatter; tested in HEK293 cells; further: on the % scale 0 is the no-effect control and ±100 the full control effect; nearly all actives have a fitted effect of over 50% in size; luciferase read-out
# Cruzain inh noDet – qHTS Assay for Promiscuous and Specific Inhibitors of Cruzain (without detergent); Cruzipain (Trypanosoma cruzi), P25779; purified cruzain, Z-FR-AMC fluorescence, no detergent; Potency, µM, for inactives: max response, negative = inhibition, usual class: inhibitors; hit rate 2.3% among 200,000;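 further: plate controls were enzyme without inhibitor for no effect and buffer without enzyme for full effect; nearly all actives have a fitted effect of over 40% in size; top concentration of the series not given in the record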
# Target sequence (P25779 123-467 limits assumed): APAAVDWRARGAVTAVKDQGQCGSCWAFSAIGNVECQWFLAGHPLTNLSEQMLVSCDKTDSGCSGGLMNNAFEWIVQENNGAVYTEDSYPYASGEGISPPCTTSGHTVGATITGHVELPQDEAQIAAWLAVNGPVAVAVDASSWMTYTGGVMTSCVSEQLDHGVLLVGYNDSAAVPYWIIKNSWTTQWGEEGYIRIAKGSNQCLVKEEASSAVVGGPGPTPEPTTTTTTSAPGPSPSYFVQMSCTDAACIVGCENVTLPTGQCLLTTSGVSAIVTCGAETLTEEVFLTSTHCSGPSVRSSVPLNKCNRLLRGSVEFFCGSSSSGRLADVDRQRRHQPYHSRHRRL
#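 Purified cruzain at 1.5 nM, pre-incubated 15 min with compound at room temperature in 100 mM sodium acetate pH 5.5, 5 mM DTT, 0.00005% Triton X-100. Reaction started with 2 uM Z-FR-AMC; AMC fluorescence increase over 60 s gives rate.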
# SARS PLpro yeast – qHTS of Yeast-based Assay for SARS-CoV PLP; S. cerevisiae expressing SARS-CoV PLpro, growth rescue; control for the full effect not named in the record; Potency, µM (top dose mostly 32.9 µM), for inactives: at the top dose activity, positive = growth rescue; hit rate 0.19% among 330,000; active means well fitted rising curve with a large enough effect; inconclusive means small, poorly fitted or top-dose-only effect; inactive means no such curve, though single readings can be large or run the other way; further: 0% is about no effect; nearly all actives have a fitted effect of over 55% in size; growth read by luminescence after 48 h
# Cruzain inh Det – qHTS Assay for Promiscuous and Specific Inhibitors of Cruzain (with detergent); purified cruzain, Z-FR-AMC fluorescence, 0.01% Triton; hit rate 0.43% among 200,000; Potency, µM, for the others: max response, negative = inhibition, usual class: inhibitors;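 further: plate controls were neutral wells for no effect and buffer without enzyme for full effect; nearly all actives have a fitted effect of over 40% in size; top concentration of the series not given in the record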
#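 In this qHTS format, compounds are incubated with 1.5 nM cruzain for 15 min at room temperature before 2 uM Z-FR-AMC is added. Release of AMC is followed at 360/450 nm, and progress is taken as the 60 s fluorescence difference.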
# RE007 growth inh – qHTS Assay for Inhibitors of the HIV-1 protein Vpr; Potency, µM (highest dose often 92.2 µM), for inactives: at the highest dose activity change, negative = less growth; S. pombe RE007 Vpr strain, BacTiter-Glo ATP luminescence, 24 h; control for the full effect not named in the record; hit rate 0.21% among 360,000; active = well fitted falling curve with a large enough effect; inconclusive = small, poorly fitted or top-dose-only effect; inactive = no such curve, though single readings can be large or run the other way;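 further: on the % scale 0 is the no-effect control and ±100 the full control effect; nearly all actives have a fitted effect of over 50% in size; the assay follows cell death caused by Vpr and the record does not say whether a fall means rescue or toxicity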
#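 Fission yeast RE007 carrying one integrated HIV-1 vpr copy, seeded at OD 0.01 in PMG+AL medium with 23 nL pinned compound. Grown 24 h at 30 degrees; viability read by BacTiter-Glo luminescence after 5 min.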
# 2A StopGo – High Throughput Screening for Foot and Mouth Disease Virus Antivirals. Potency, µM (highest dose often 57.9 µM), without a hit: top-dose signal change, negative = less light. AID 1159524, 2015. hit rate 1.2% among 410,000. human cells with a luciferase reporter of 2A StopGo recoding; control for the full effect not named in the record; active = well fitted falling curve with a large enough effect; inconclusive = small, poorly fitted or top-dose-only effect; inactive = no such curve, though single readings can be large or run the other way; tested in HEK293T cells; further: on the % scale 0 is the no-effect control and ±100 the full control effect; nearly all actives have a fitted effect of over 45% in size; luciferase light after 4 h
# NS1 inh – qHTS Assay for Inhibitors of Influenza NS1 Protein Function. S. cerevisiae slowed by influenza A NS1, growth recovery by OD600. Potency, µM (top dose mostly 46.1 µM), inactives show at the highest dose activity, positive = more growth. AID 2326, 2010. hit rate 0.4% among 270,000; active means well fitted rising curve with a large enough effect; inconclusive means small, poorly fitted or top-dose-only effect; inactive means no such curve, though single readings can be large or run the other way; further: nearly all actives have a fitted effect of over 50% in size
#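 A cell-based growth assay was used: compounds that relieve NS1-induced slow growth of budding yeast raise OD600. Assay medium was yeast nitrogen base with ammonium sulphate and -URA supplement, pH 6.0, with 2% galactose.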
# MARV entry inh – qHTS for inhibitors of binding or entry into cells for Marburg Virus | Marburg virus pseudotyped entry inhibition, cell reporter; control for the full effect not named in the record; about a third of the inactives were read at about 46 µM | Potency, µM (doses to about 37.8 µM), for inactives: at the highest dose activity change, negative = inhibition, most hits filed as inhibitors | hit rate 1.8% among 300,000 | AID 540276, 2011; active = well fitted inhibition curve with a large enough effect; inconclusive = small, poorly fitted or top-dose-only effect, or effect the other way; inactive = flat fitted curve, though single readings scatter; tested in HEK293 cells; about a fifth of its hits are not listed in these tables; further: on the % scale 0 is the no-effect control and ±100 the full control effect; luciferase read-out
# * hit, by the source's call; ? = inconclusive; · = no result given; [ ] = another dose, or the depositor's remark. Unless noted, the call rests on the fitted dose curve; in most records, active means well fitted curve in the direction sought with a large enough effect; inconclusive means small, poorly fitted or top-dose-only effect, or another doubt; inactive means no such curve, though single readings can be large; an effect the other way counts as inactive or inconclusive. Potency means the concentration at half of the fitted maximal effect. No enrichment for hits. About 4.7% of those tested had a hit in this group.
item | SMILES | Lassa entry inh | Cruzain inh noDet | SARS PLpro yeast | Cruzain inh Det
1 | COc1ccc(S(=O)(=O)Nc2cccc(Cl)c2)cc1OC | 2% | -12% | 4% | -3.2%
2 | Cc1cc(Cl)ccc1OCC(=O)NN1C(=O)C2C3C=CC(C3)C2C1=O (stereo unspecified) | 15%[46.1 µM] | · | 0% | ·
3 | COc1ccc(C(=O)COC(=O)c2ccc3c(c2)OCO3)c(OC)c1 | 6% | · | -2% | ·
4 | O=C(CN1C(=O)S/C(=C/c2ccccn2)C1=O)N1CCOCC1 | · | · | -2% | ·
5 | COCCN1C=C(C(=O)OC)C(c2cc(Br)c(OC)c(OC)c2)C(C(=O)OC)=C1 | 11µM* | ? | 0% | 22µM*
6 | O=C(COC(=O)c1ccco1)Nc1cccc(Br)c1 | 8% | -10% | -8% | -2.2%
7 | Cc1nonc1OCCN1CCN(c2ccc([N+](=O)[O-])cc2)CC1 | -9%[46.1 µM] | · | 0% | ·
8 | Cc1ccnn2cc3c(=O)n(C)c(=O)n(C)c3c12 | · | 2% | 3% | -0.7%
9 | CNC(=O)CC1C(=O)N(c2ccc(F)cc2)C(=S)N1NC(=O)c1ccc(Br)cc1 (stereo unspecified) | · | · | 8% | ·
10 | CN(C)c1ccc(C2Nc3ccccc3C(=O)N2NS(=O)(=O)c2ccccc2)cc1 (stereo unspecified) | ? | · | -1% | ·
11 | Cc1ccccc1C(=O)Nc1nnc(S(=O)(=O)N(C)c2ccc(Cl)cc2)s1 | 0%[46.1 µM] | 10% | · | 4.2%
12 | Cc1ccc(C(=O)N(c2ccc(C)cc2)S(=O)(=O)c2ccc(Cl)cc2)cc1 | ? | 0% | · | -2.5%
13 | CCN(CC(=O)Nc1ccc2c(c1)OCCO2)C(=O)/C=C/c1ccc([N+](=O)[O-])cc1 | -12% | · | -4% | ·
14 | COc1ccc(C)cc1NC(=O)COc1cc(=O)n(C)c2ccccc12 | ? | -5% | · | 1.5%
15 | CCOC(=O)c1c(NC(=O)c2cc(-c3ccc(OC)c(OC)c3)on2)sc2c1CCCC2 | -3%[46.1 µM] | -3% | · | -4.1%

item | RE007 growth inh | 2A StopGo | NS1 inh | MARV entry inh
1 | -12%[3.69 µM] | -11% | -6% | 7%
2 | 119% | -6% | · | 4%[46.1 µM]
3 | 20% | 31%[activator] | · | 3%
4 | -1% | 1% | -2% | ·
5 | 29% | -25% | -11% | -23%
6 | -3% | 0% | -16% | 3%
7 | 6% | ? | 2% | ?
8 | · | · | 7% | -7%
9 | 4% | 0% | 8% | -1%
10 | 9% | 21% | · | -26%[46.1 µM]
11 | · | -20% | · | ·
12 | · | 0% | · | ·
13 | -5% | -13% | · | 9%
14 | · | -18% | · | ?
15 | · | -13% | · | 0%[46.1 µM]

# (continued)
item | SMILES | Lassa entry inh | Cruzain inh noDet | SARS PLpro yeast | Cruzain inh Det
16 | Cc1nc(NC(C)C(=O)O)c2nc(C)oc2n1 (stereo unspecified) | -3% | -8% | 2% | 2.8%
17 | CC1CCCCC1NC(=O)COCc1cc(-c2cccs2)on1 (stereo unspecified) | ? | · | -1% | ·
18 | CCn1c(=O)c([N+](=O)[O-])c(NCC(O)c2ccccc2)c2ccccc21 (stereo unspecified) | -5% | -2% | -8% | -5.4%
19 | COc1ccccc1NC(=O)c1c(N=Cc2c(O)ccc3ccccc23)cnn1C | ? | · | 1% | ·
20 | CCN(CC)CCn1c2c(c(SCC(=O)Nc3ccc(C)c(F)c3)nc1=O)CCC2 | -19% | · | 1% | ·
21 | COc1cc(/C=C2/SC(=O)NC2=O)ccc1OC(=O)c1ccco1 | 18% | · | -1% | ·
22 | NS(=O)(=O)c1ccc(NC(=O)COC(=O)COc2ccccc2)cc1 | · | · | 2% | ·
23 | CCCN1CCN(C(=S)Nc2ccc([N+](=O)[O-])cc2)CC1 | -3% | -4% | -22% | -7.1%
24 | O=C(C/C=N/OCc1ccc(F)cc1Cl)c1cnc(-c2ccccc2)s1 | 8% | ? | -1% | -0.2%
25 | COc1ccc(CN2C(=NC(=O)C3CCCCC3)SC3CS(=O)(=O)CC32)cc1 (stereo unspecified) | 7%[46.1 µM] | · | 10% | ·
26 | Cc1c(Cl)c([N+](=O)[O-])nn1CC(=O)NC12CC3CC(CC(C3)C1)C2 | -12% | 5% | -3% | -4.1%
27 | CCOC(=O)N1CCc2c(sc3c2c(=O)n(CCc2ccccc2)c(=O)n3Cc2ccc(F)cc2)C1 | -4%[46.1 µM] | -15% | · | -0.8%
28 | O=C(CS(=O)(=O)c1cn(CC(=O)N2CCOCC2)c2ccccc12)NCc1ccc(F)cc1 | 4% | · | ? | ·
29 | CC(C)NC(=O)Cn1cc(C(=O)C(=O)N2CCOCC2)c2ccccc21 | 2% | · | -2% | ·
30 | C=CCNC(=O)NC(=O)CN1C(=O)NC(c2ccccc2)(c2ccccc2)C1=O | ? | · | 2% | ·

item | RE007 growth inh | 2A StopGo | NS1 inh | MARV entry inh
16 | -6% | 3% | 19% | 1%
17 | -5% | 8% | -18% | 14%[46.1 µM]
18 | -14% | -31% | -6% | -6%
19 | -12% | ? | 0% | ?
20 | 1% | -23% | · | 16%
21 | 4% | -20% | 4% | 1%
22 | 7% | -20% | 6% | ·
23 | -20% | 6% | -9% | 16%
24 | 0% | -23% | 1% | -8%
25 | -6% | -12% | -5% | 5%[46.1 µM]
26 | 22% | ? | 1% | -12%
27 | · | ? | · | ?
28 | 1% | -17% | 1% | 0%
29 | 2% | -7% | 8% | 14%
30 | 15% | -11% | 17% | -4%[46.1 µM]

# Next part.
item | SMILES | Lassa entry inh | Cruzain inh noDet | SARS PLpro yeast | Cruzain inh Det
31 | O=c1c(O)c(-c2cccs2)oc2ccc(Cl)cc12 | -2% | ? | -8% | -4.8%
32 | O=C(NN=Cc1ccc(N(CCCl)CCCl)cc1)c1cccc([N+](=O)[O-])c1 | ? | · | · | ·
33 | Cc1cc(C)c2nc(Nc3nc(CSc4nc5ccccc5[nH]4)cc(=O)[nH]3)nc(C)c2c1 | 3%[46.1 µM] | · | · | ·
34 | COc1ccc(-n2c(O)c(/C=N/Nc3nc(C)cc(C)n3)c3ccccc3c2=O)cc1OC | ? | · | 3% | ·
35 | CC(C)=CCN1CCN(Cc2cnc(N3CCCC3)s2)CC1CCO (stereo unspecified) | -17% | · | 0% | ·
36 | Fc1ccc(COc2cccc3cccnc23)cc1 | 24% | · | -1% | ·
37 | NNC(=O)c1cc2c(N3CCC(Cc4ccccc4)CC3)ncnc2s1 | 10µM* | · | -1% | ·
38 | COCCN1C(=O)C(CC(=O)Nc2ccc(C(=O)O)cc2)SC1=Nc1ccccc1 (stereo unspecified) | 0% | 0% | -2% | 0.2%
39 | C=CCNc1ncnc2c1[nH]c1ccc(Cl)cc12 | 10µM* | 13µM* | 0% | ?
40 | Cc1ccc(CN2CCN(C(=O)CCN3C(=O)c4ccccc4C3=O)CC2)cc1 | 2% | -1% | 8% | 0.4%
41 | O=C(Nn1c(=O)[nH]c2ccsc2c1=O)c1ccccc1 | 4% | 3% | 6% | -6.3%
42 | COc1ccc(C(=O)NCCCCCCNC(=O)c2ccc(OC)cc2)cc1 | ? | · | 1% | ·
43 | COc1cc(/C=N/NC(=O)c2ccncc2)ccc1OCC(=O)Nc1ccc(C)c(C)c1 | · | · | -1% | ·
44 | Cc1cc(C)c(NC(=O)c2sc3nc4c(cc3c2N)C(=O)CC(C)(C)C4)c(C)c1 | -28% | -16% | -1% | -8.9%
45 | CCN1C(=NCCCOC(C)C)N[C@@H](CCc2ccccc2)[C@H](C(=O)NCCCOC(C)C)[C@H]1C | · | · | ? | ·

item | RE007 growth inh | 2A StopGo | NS1 inh | MARV entry inh
31 | ? | 19% | -129% | 18%
32 | 18% | -7% | · | ?
33 | -7% | ? | · | 6%[46.1 µM]
34 | 0% | -14% | · | ?
35 | -9% | 6% | 4% | 9%[46.1 µM]
36 | 4% | 37%[activator] | -5% | 30%[46.1 µM]
37 | -10% | 14µM* | · | -14%[46.1 µM]
38 | 12% | -4% | 0% | 4%
39 | -8% | ? | -54% | ?
40 | -3% | ? | -4% | 30%
41 | 4% | 23% | 0% | -2%
42 | 5% | 47%[activator] | -4% | -1%
43 | 1% | 0% | 4% | -23%[46.1 µM]
44 | -3% | -16% | ? | -28%
45 | -1% | -22% | 2% | 1%[14.2 µM]

# Brought forward from above: 3 compounds; new compounds follow.
item | SMILES | Lassa entry inh | Cruzain inh noDet | SARS PLpro yeast | Cruzain inh Det
43 | COc1cc(/C=N/NC(=O)c2ccncc2)ccc1OCC(=O)Nc1ccc(C)c(C)c1 | · | · | -1% | ·
44 | Cc1cc(C)c(NC(=O)c2sc3nc4c(cc3c2N)C(=O)CC(C)(C)C4)c(C)c1 | -28% | -16% | -1% | -8.9%
45 | CCN1C(=NCCCOC(C)C)N[C@@H](CCc2ccccc2)[C@H](C(=O)NCCCOC(C)C)[C@H]1C | · | · | ? | ·
46 | CCC12CN3CC(CC)(CN(C1)C3c1ccc([N+](=O)[O-])o1)C2=O (stereo unspecified) | -4% | · | 0% | ·
47 | CCOc1ccc(NC(=O)C2Cc3ccccc3CN2S(=O)(=O)CC)cc1 (stereo unspecified) | -10% | · | -1% | ·
48 | Cc1ccc(SCc2ccc(C(=O)Nc3cccc([N+](=O)[O-])c3)cc2)cc1 | 9% | 20µM* | 3% | 4.8%
49 | COc1ccc(C(=O)Nc2sc3c(c2C(=O)O)CC(C)(C)OC3)cc1 | ? | -9% | 18% | -9.6%

item | RE007 growth inh | 2A StopGo | NS1 inh | MARV entry inh
43 | 1% | 0% | 4% | -23%[46.1 µM]
44 | -3% | -16% | ? | -28%
45 | -1% | -22% | 2% | 1%[14.2 µM]
46 | -21% | -7% | -1% | -8%[46.1 µM]
47 | -7% | 38%[activator] | · | 5%
48 | -10% | · | 10% | -12%
49 | -2% | -17% | 11% | 4.5µM*
